CSC inhib = cancer stem cell inhibition; cancer stem cell-like cells viability, luminescence; inhibition, % at 7.5 µM; actives 1.1% (n = 300,000); AID 2717;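 active = mean at 75% or more and at least half the replicates too; inconclusive = mean and replicates disagree; tested in HMLE shEcad cells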;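 also: 0% = median of negative and 100% = median of positive control wells; the first replicate is given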
Yeast UUG start = modulators of start codon recognition fidelity in yeast. S. cerevisiae UUG-firefly luciferase reporter, luminescence/redox ratio. actives 0.13% (n = 350,000). activity score, % at 18.7 µM. AID 602363;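 active = replicate mean at a twofold rise or more, about +100% in these data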;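 also: firefly luciferase made from a UUG start codon reports start codon fidelity; reporter light over untreated wells divided by growth signal over untreated wells; some hits fall short of that in this replicate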
Rce1 inhib = blocks yeast Ras-converting enzyme; actives 0.27% (n = 290,000); yeast membranes, quenched prenylated peptide cleavage fluorescence; AID 2563; calls only;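 active = fall in fluorescence gain of 50% or more versus controls, with final raw signal at or below 3038400; inconclusive = same 50% fall but final raw signal above 3038400; inactive = fall in fluorescence gain under 50%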;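 also: plate controls were neutral control wells for no effect and wells lacking membranes for full effect; tested at 10 µM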
Target sequence (Q03530 whole entry, looked up): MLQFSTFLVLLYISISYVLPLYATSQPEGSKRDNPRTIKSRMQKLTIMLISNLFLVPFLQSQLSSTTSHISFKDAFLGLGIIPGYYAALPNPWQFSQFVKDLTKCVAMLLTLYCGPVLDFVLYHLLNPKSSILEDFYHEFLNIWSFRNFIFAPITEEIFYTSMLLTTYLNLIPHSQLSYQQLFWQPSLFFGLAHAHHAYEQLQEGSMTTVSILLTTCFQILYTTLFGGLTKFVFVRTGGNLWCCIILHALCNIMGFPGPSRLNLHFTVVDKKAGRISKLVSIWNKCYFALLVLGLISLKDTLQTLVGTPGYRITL
MT1-MMP act inh = inhibitors of human MT1-MMP activation; P50281; GFP/RFP ratio change, % at 20 µM; HT1080 RFP-PRO-GFP cells, GFP/RFP ratio fluorescence, overnight; percent of plate control window, DMSO zero; actives 0.061% (n = 360,000);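 active = GFP/RFP ratio change of at least 30% with cell ATP level not reduced by more than half and red fluorescence within 50% of control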; also: strong numbers were not always called active
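Assay system: HT1080 RFP-PRO-GFP cells | Dosing: 20 µM single dose, 1% DMSO | Incubation: Cells overnight before dosing, compound overnight, 37 °C, 5% CO2 | Evaluation: GFP/RFP fluorescence ratio | Control set: DMSO-only wells and HT1080 RFP-L50D-GFP cell wells as references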
eIF4H FP inh = inhibitors of RNA binding by human eIF4H; Q15056; eIF4H fluorescence polarization binding assay; inhibition, % at 35 µM; actives 0.94% (n = 290,000);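 active = 50% or more with normal probe brightness, or confirmed in later tests; inconclusive = above 50% with abnormal brightness, or retests that disagree; inactive = below 50% or failed in later tests; about a fifth of its hits are not listed in these tables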;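 also: calls also rest on retests at 20 µM and on dose response follow-up; 0% = protein and probe with vehicle and 100% = probe without protein; strong numbers were not always called active; many hits fall short of the cut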
Env fusion inh = blocks HIV Env-driven cell-cell fusion. HeLa-JRFL Env/CEM21 cell fusion, luciferase. inhibition, % at 12.3 µM. actives 1.1% (n = 360,000). AID 651610;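 active = mean replicate inhibition score of at least 50 and every replicate individually at or above 50; inconclusive = only one of the two criteria met; inactive = mean below 50 and not all replicates reaching 50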;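 also: 0% = plate neutral controls and 100% = maraviroc near 300 nM; one replicate is shown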
PABP FP inh = blocks human PABP binding to poly(A) RNA | AID 2014 | P11940 | actives 1% (n = 290,000) | fluorescence polarization | inhibition, % at 35 µM;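 active = 50% or more with normal probe brightness, or confirmed in later tests; inconclusive = above 50% with abnormal brightness, or retests that disagree; inactive = below 50% or failed in later tests; about a fifth of its hits are not listed in these tables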;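 also: calls also rest on retests at 20 µM and on dose response follow-up; controls were probe without protein and protein plus probe with vehicle; some compounds called inactive have numbers as strong as hits; many hits fall short of the cut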
Target sequence (P11940 whole entry, looked up): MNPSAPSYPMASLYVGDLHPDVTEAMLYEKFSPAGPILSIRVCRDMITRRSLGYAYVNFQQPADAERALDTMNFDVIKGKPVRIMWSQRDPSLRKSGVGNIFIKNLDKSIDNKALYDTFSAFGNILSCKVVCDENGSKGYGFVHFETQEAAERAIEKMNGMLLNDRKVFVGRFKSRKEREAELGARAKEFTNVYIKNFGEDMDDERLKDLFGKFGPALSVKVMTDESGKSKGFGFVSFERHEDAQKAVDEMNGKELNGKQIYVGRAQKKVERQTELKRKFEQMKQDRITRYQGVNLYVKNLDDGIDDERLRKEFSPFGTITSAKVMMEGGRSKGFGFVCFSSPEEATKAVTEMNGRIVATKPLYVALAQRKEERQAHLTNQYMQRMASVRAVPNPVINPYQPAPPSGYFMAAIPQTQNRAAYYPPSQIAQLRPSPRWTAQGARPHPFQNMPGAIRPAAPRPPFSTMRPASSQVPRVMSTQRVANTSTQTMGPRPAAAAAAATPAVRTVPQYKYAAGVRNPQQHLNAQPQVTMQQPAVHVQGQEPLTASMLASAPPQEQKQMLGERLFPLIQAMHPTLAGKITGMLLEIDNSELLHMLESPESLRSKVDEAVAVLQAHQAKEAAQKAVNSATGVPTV
eIF4H FP inh retest = recorded beside eIF4H FP inh, whose call it bears; inhibition, %; compound at 20 µM; confirmation average;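 mean of two retest wells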
PABP FP inh retest = also measured in PABP FP inh; calls as there; inhibition, %; compound at 20 µM; confirmation repeats;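 mean of two retest wells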
MT1-MMP act inh RFP = further read-out of MT1-MMP act inh, marked with its call; RFP signal change, %; measured here: RFP expression control read;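 0 = vehicle wells; hits needed this value within 50% of zero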
An asterisk follows results filed as active; i = inactive; u = inconclusive; x = no result given; & = joins results of further samples.

SMILES	CSC inhib	Yeast UUG start	Rce1 inhib	MT1-MMP act inh	MT1-MMP act inh RFP	eIF4H FP inh	Env fusion inh	PABP FP inh	others
CC1(C)CC(=O)C=C(c2ccc3c(c2)OCO3)C1	0	-14	i	1	-1	x	-16	x
CCOc1ccc(N/C(=C(/C(Cl)=C(Cl)Cl)[N+](=O)[O-])n2cncn2)cc1	-14	x	i	x	x	8	x	54	eIF4H FP inh retest=10;PABP FP inh retest=11
CC(=O)N1CCc2c(sc(NC(=O)CCS(=O)(=O)c3ccc(C)cc3)c2C#N)C1	1	x	i	-2	1	x	-32	x
CCOC(=O)C1C(=O)CC(C)(O)C(C(=O)OCC)C1c1ccc(F)cc1 (stereo not given)	-7	-11	i	2	4	-1	-27	2
Cn1c(=O)c2c(nc(NCc3ccco3)n2C/C=C/c2ccccc2)n(C)c1=O	16	-15	i	-11	-24	13	x	1
Cc1ccc(Cl)cc1NC(=O)C1CCCN1S(=O)(=O)c1ccc(-c2ccc(=O)[nH]n2)s1 (stereo not given)	13	-5	i	-2	-2	-4	13	-2
CC(=O)NCC12CC3CC(C1)CC(C(=O)O)(C3)C2	-9	-14	i	5	3	5	x	-7
Cc1cc2c(nc1C)CCCN2C[C@@H](C)O/N=C1/[C@H]2CCn3c(=O)n(-c4ccccc4)c(=O)n3[C@H]2[C@H](O)[C@@H]2O[C@H]12	-1	x	x	x	x	29	x	17
CCS(=O)c1ccccc1C(=O)OC(C)C(=O)Nc1ccc(S(=O)(=O)N2CCCC2)cc1 (stereo not given)	-12	x	i	-4	-6	x	-6	x
COc1ccc(CCNC(=S)N2CCC(C(N)=O)CC2)cc1	-8	-14	i	1	3	4	-74	-7
O=C(Cn1ccc([N+](=O)[O-])n1)Nc1nccs1	-11	-18	i	5	3	4	-7	4
O=C(CSc1nc(O)cc(=O)[nH]1)N1CCOCC1	-16	-1	i	-2	7	-2	-1	0
Cn1c(CNC(=O)c2ccccc2F)nnc1SCC(=O)c1ccccc1	5	-9	i	0	4	-9	-173	-1
OCCN(CC#CCC(O)(c1ccccc1)C1CCCC1)CCO (stereo not given)	-3	x	i	0	1	-2	10	-2
CSc1nnc([C@@H](NC(=O)OC(C)(C)C)C(C)C)o1	-17	-14	i	0	3	-10	-44	-16
c1ccc2c(c1)CCc1c(-c3ccncc3)n[nH]c1-2	-15	3	x	2	-4	x	x	x
CCOC(=O)N1CCN(C(=O)CN(c2ccc(OC)cc2)S(C)(=O)=O)CC1	-9	2	i	2	3	3	-101	10
O=C(CSc1nnc(-c2ccccc2)c(-c2ccccc2)n1)Nc1ccc(Br)cn1	42	x	i	-10	-16	-4	18	-5
COc1c(Cl)cc(C(=O)O)cc1Cl	-2	-21	i	1	5	x	x	x
O=C(COc1ncnc2c(Cl)cc(Cl)cc12)NCCC1=CCCCC1	-29	-11	i	0	-3	-5	x	-4
CCCc1nn(C)c(C(=O)Nc2cccc3ccccc23)c1Cl	-17	x	i	-11	-2	-4	-152	15
Cn1c(SCC(=O)Nc2nccs2)nnc1-c1ccc(S(=O)(=O)N2CCCC2)cc1	0	-23	i	-3	4	-2	-3	-4
O=C1C=C(c2ccc3c(c2)oc2ccccc23)C[C@@H](c2ccc3c(c2)OCO3)C1	41	-5	x	3	-7	x	-38	x
Cc1ccc([C@H]2N[C@]3(CCCN(Cc4ccc(F)cc4)C3=O)[C@H]3C(=O)N(Cc4ccccc4)C(=O)[C@@H]23)cc1	x	-16	x	-2	-7	x	-46	x
Cc1c(Cl)cccc1NC(=S)/C(=C(\[O-])c1ccc(Cl)s1)[n+]1ccccc1	15	x	i	-2	2	10	25	27

Next part.
SMILES	CSC inhib	Yeast UUG start	Rce1 inhib	MT1-MMP act inh	MT1-MMP act inh RFP	eIF4H FP inh	Env fusion inh	PABP FP inh	others
Cc1nc(SCC(=O)Nc2ccc3c(c2)OCO3)c(C#N)c2c1CCCC2	0	-13	i	-4	-18	7	x	1
N#Cc1ccc(C(=O)Nc2cccc3ccccc23)c(F)c1	-1	-7	i	2	2	4	6	-4
CCC(C)N1C(=O)N(c2cccc(Cl)c2)C(C)(O)CC1(C)C (stereo not given)	-2	-3	i	-1	-2	-5	24	-3
CCOC1(C)OCC(=O)[C@]2(CCC3C4CCC5=CC(=O)C=CC5(C)C4C(=O)CC32C)O1 (stereo not given in full)	7	x	i	2	2	1	-10	0
COCC(C)NC(=O)c1ccc2nc(-c3ccccc3)c(-c3ccccc3)nc2c1 (stereo not given)	13	-15	i	0	-2	-2	-12	-7
O=C(NC(NC(=O)c1c(F)cccc1F)c1ccc([N+](=O)[O-])cc1)c1c(F)cccc1F	1	-10	i	1	0	8	3	0
COc1ccc(NC2CCCN(C(=O)C3=NNC(=O)CC3)C2)cc1 (stereo not given)	x	6	x	3	7	x	1	x
CC(C)Oc1ccc(/C=N/NC(=O)c2nnn(-c3nonc3N)c2CN(C)c2ccccc2)cc1	28	-12	i	1	-2	1	2	-4
CC1CCC2(CC1)NC(=O)N(CC(=O)NC1(C#N)CCCCC1)C2=O (stereo not given)	-19	x	i	2	4	x	6	x
CCN(C(=O)Cc1ccccc1OC)c1nnc(-c2ccncc2)s1	18	-15	i	-4	-3	-1	x	7
O=C(NCc1ccc(F)cc1)C1CCC(CNS(=O)(=O)c2cccs2)CC1 (stereo not given)	1	-8	i	-3	-2	5	0	14
Clc1ccc2c(c1)C1CC2CCN1Cc1ccccc1 (stereo not given)	x	-11	x	4	5	x	1	x
Cc1cc(C)n(Cc2ccc(C(=O)NCCC3=CCCCC3)o2)n1	-2	-10	i	10	-2	-1	x	-1
CCOC(=O)C1=C(C)N(C)C(=O)NC1c1cccc([N+](=O)[O-])c1 (stereo not given)	-2	21	i	8	-5	x	19	x
COc1ccccc1-c1nc(-c2ccc(Br)cc2)no1	-8	-13	i	3	3	0	x	-9
CCN(CCO)C(=O)c1ccc2nc(Cc3cccc(Cl)c3)oc2c1	-8	-5	i	2	0	-6	-4	-1
COC(=O)c1cccnc1NC(=S)NNC(=O)c1ccncc1	-1	-15	i	4	2	-3	-31	-4
C[C@@H]1CN([C@H](C)CO)S(=O)(=O)c2ccc(C#Cc3ccccc3)cc2O[C@@H]1CN(C)C(=O)CN(C)C	x	20&12&12	x	-1	2	x	1	x
S=C(Nc1ccccc1Cl)N(CCCN1CCOCC1)Cc1ccco1	-10	-15	i	-1	0	0	7	5
CC(=O)N/N=C(\C)c1ccc2c(c1)OCCO2	-11	x	i	-4	2	-4	1	29
O=C(NC(=S)N1CCCC1)c1ccc(Cl)cc1	1	-18	i	1	1	3	13	-6
Cc1ccc(Nc2c(-c3ccco3)nc3ccccn23)cc1	-5	-13	i	0	-7	41	-14	-10
Cc1cc(SCC(=O)Nc2cccc(S(=O)(=O)NC3=NCCCCC3)c2)nc2ccccc12	-9	-6	i	-5	-9	-6	22	6
O=C(O)c1ccc(N=NN2CCCC2)cc1	x	x	i	1	4	5	4	-4
CCOC(=O)C1CCCN(C(=O)c2ccc3nc(-c4ccc(OC)c(OC)c4)c(-c4ccc(OC)c(OC)c4)nc3c2)C1 (stereo not given)	-17	18	i	-1	-1	1	4	6

Random excerpt: three entries already listed
SMILES	CSC inhib	Yeast UUG start	Rce1 inhib	MT1-MMP act inh	MT1-MMP act inh RFP	eIF4H FP inh	Env fusion inh	PABP FP inh	others
Clc1ccc2c(c1)C1CC2CCN1Cc1ccccc1 (stereo not given)	x	-11	x	4	5	x	1	x
CCN(C(=O)Cc1ccccc1OC)c1nnc(-c2ccncc2)s1	18	-15	i	-4	-3	-1	x	7
COC(=O)c1cccnc1NC(=S)NNC(=O)c1ccncc1	-1	-15	i	4	2	-3	-31	-4

Next records.
SMILES	CSC inhib	Yeast UUG start	Rce1 inhib	MT1-MMP act inh	MT1-MMP act inh RFP	eIF4H FP inh	Env fusion inh	PABP FP inh	others
CC(NC(=O)c1ccc(Cl)s1)C1CCCO1 (stereo not given)	x	-10	i	5	2	-3	-46	-8
CC(C)OC(=O)CSc1nnc2c(n1)[nH]c1ccc(F)cc12	6	x	i	5	0	-9	-3	-2
O=C(O)c1cc(N/N=C/c2ccc(N3CCOCC3)cc2)ccc1Cl	-27	15	i	1	3	0	-23	0
Nc1ncnc2c1ncn2[C@@H]1O[C@H](C(=O)NCc2ccc(OC(F)(F)F)cc2)[C@@H](O)[C@H]1O	x	-11	x	5	-5	x	12	x
O=C(N/N=C/c1ccccn1)c1ccc(NC(=O)c2ccccc2Cl)cc1	7	-34	i	-1	3	8	-4	14
Cc1cc(=O)oc(C)c1C(=O)N1CCc2c([nH]c3ccccc23)C1C(C)C (stereo not given)	-2	9	i	0	3	2	32	0
CC(=O)Nc1ccc(C(=O)N/N=C/C2CC3C=CC2C3)cc1 (stereo not given)	3	x	i	-1	2	5	-10	-10
O=C(Nc1sc2c(c1C(=O)O)CCCC2)c1ccc(F)cc1	12	0	i	-1	-2	1	-39	8
CCOc1ccc(N(C(C)C(=O)N/N=C(\C)c2cccc(NC(=O)c3ccccc3)c2)S(C)(=O)=O)cc1 (stereo not given)	10	-25	x	2	-6	-16	x	-3
O=C1COc2ccc(C(=O)COC(=O)Cc3ccc(F)cc3)cc2N1	-9	-10	i	-1	2	x	5	x
O=C(Cn1cc2c(n1)CCCC2)N1CCCC1	-13	-8	i	3	3	4	-33	-3
COCC(C)NC(=S)NCCc1ccc(Cl)cc1Cl (stereo not given)	-2	x	i	3	-1	2	0	-9
Cc1ccc(OCC(=O)Nc2ccc3c(c2)OCO3)cc1C	12	x	i	4	1	5	4	-5
COc1ccc(C(C)C)cc1S(=O)(=O)Nc1ccccn1	-5	-10	i	0	7	-9	x	-9
C#CCN(C[C@@H]1[C@@H](OC(=O)NC2CC2)[C@@H](OC(=O)NC2CC2)Cn2c(=O)n(CCCCCC)c(=O)n21)S(=O)(=O)c1ccc(C)cc1	x	-2	x	-2	-3	x	18	x
CCOC(=O)NNC(=O)c1ccc(Cl)cc1	-7	-3	i	-6	-1	-6	x	-3
Cc1ccc(C)n1-c1cc(S(=O)(=O)N2CCOCC2)ccc1N1CCCC1	-1	0	i	-12	0	92*	-42	106*
COc1cc(CN(C)c2ccc(S(=O)(=O)N3CCCC3)cn2)ccc1OC(F)F	x	-7	x	-5	-13	x	5	x
Cc1c(C(=O)NCCN2CCCC(O)C2)oc2c(F)cccc12 (stereo not given)	7	-6	i	2	1	0	-12	1
O=C(COC(=O)CNC(=O)c1ccccc1F)NCC(F)(F)F	-3	x	i	-5	3	-9	u	-11
Cc1occc1C(=O)Nc1cccc(S(=O)(=O)N2CCOCC2)c1	6	-13	x	3	2	x	-25	x
CCN(CC)S(=O)(=O)c1ccc(NC(=O)c2ccc(CN3CCOCC3)cc2)cc1	-2	-22	i	6	-21	8	64*	1
CCC1(CC)C(=O)Nc2ccccc21	-8	1	i	5	5	x	x	x
CCN(CC(=O)Nc1ccc(OC)cc1)C(=O)CN1C(=O)NC(C)(c2ccc3ccccc3c2)C1=O (stereo not given)	-6	4	i	2	1	-1	6	4
O=C(Nc1ncccn1)C1c2ccccc2Oc2ccccc21	-6	x	i	-5	-1	-3	22	4
Cc1ccsc1CN(C)CC(=O)NCC(=O)Nc1ccc(F)c(F)c1F	-21	-17	x	-6	-2	x	1	x
CCn1c(=NC(=O)c2cccc(N3C(=O)CCC3=O)c2)sc2c(C)ccc(OC)c21	10	2	i	4	-4	-4	-6	-3
N#CCSc1nnc(Cc2cccc3ccccc23)n1C1CCCCC1	16	-4	i	-14	-3	8	-29	10

Source: PubChem (several laboratories)

A portion of the library; rates above refer to the full screens.
